# Screens deposited in PubChem BioAssay by National Center for Advancing Translational Sciences (NCATS).
# StopGo RLuc = lowers the Renilla signal of an FMDV 2A StopGo reporter; AID 1745857; HEK cells with a luciferase reporter of 2A StopGo recoding; Potency, µM (highest dose often 57.5 µM), inactives show top-dose signal change, negative = less light; hit rate 0.32% among 120,000; active means well fitted falling curve with a large enough effect; inconclusive means small, poorly fitted or top-dose-only effect; inactive means no such curve, though single readings can be large or run the other way; further: nearly all actives have a fitted effect of over 55% in size; overnight with compound
# StopGo FLuc = lowers the firefly signal of an FMDV 2A StopGo reporter; HEK cells with a luciferase reporter of 2A StopGo recoding; hit rate 0.23% among 120,000; Potency, µM (series often up to 57.5 µM), inactives show top-dose signal change, negative = less light; active = well fitted falling curve with a large enough effect; inconclusive = small, poorly fitted or top-dose-only effect; inactive = no such curve, though single readings can be large or run the other way; further: nearly all actives have a fitted effect of over 60% in size; overnight with compound
# Active calls of the source: *; ? = inconclusive; & = joins results of further samples; [ ] = another dose, or the depositor's remark. On the % scale 0 is the no-effect control and ±100 the full control effect; potency means the concentration at half of the fitted maximal effect.
# A first look:
# The line under a structure holds: StopGo RLuc | StopGo FLuc
CCOc1ccc(NC(=O)CSc2nnc3scc(-c4ccccc4)n23)cc1
  59%[activator] | 16%
CCc1ccccc1N/C=C(\C#N)c1nc(-c2ccc(C)c(C)c2)cs1
  -6% | -7%

# Results, from the start:
# The line under a structure holds: StopGo RLuc | StopGo FLuc
CCOc1ccc(NC(=O)CSc2nnc3scc(-c4ccccc4)n23)cc1
  59%[activator] | 16%
CCc1ccccc1N/C=C(\C#N)c1nc(-c2ccc(C)c(C)c2)cs1
  -6% | -7%
Clc1ccc(-c2nc3ncccn3c2Nc2ccc3c(c2)OCCO3)cc1
  -12% | 15%
Cc1nn(Cc2ccc(Cl)cc2)c2sc(C(=O)N3CCN(CC(=O)N4CCCC4)CC3)cc12
  16% | -1%
CCOc1cc(/C=C2/NC(=O)NC2=O)cc(I)c1OCc1ccc(F)cc1
  -5% | 0%
CCCOC(=O)c1cc(NC(=O)c2cc(Cl)c(OC)c(Cl)c2)ccc1N1CCOCC1
  18% | -11%
COc1cccc(C2C(C(=O)Nc3ccc(Cl)cc3)=C(C)Nc3nc4ccccc4n32)c1 (centres undefined)
  -1% | 4%
CC(C)OC(=O)c1ccc(NC(=O)C2=Cc3cc(Br)ccc3OC=C2)cc1
  ? | ?
CCCCn1c(=O)[nH]c(=O)c2c1nc(COC(=O)C1(c3ccccc3)CCC1)n2CCC
  8% | 13%
COc1ccc(C(=O)c2oc3ccc(NC(=O)c4ccncc4)cc3c2C)cc1
  ? | ?
C=CCNc1nc2c(c(=O)n(C)c(=O)n2C)n1CC(O)COc1ccc(OC)cc1 (centres undefined)
  22µM* | ?
Cc1cccc(Oc2ccc3c(c2)cc(C(=O)NCc2ccco2)n3C)c1
  ? | ?
O=C1CC(c2nnc(Cc3cccc(Cl)c3)o2)CN1c1ccccc1 (centres undefined)
  -18% | -2%
Cc1cc(C)c2c(CN3CCCCC3)cc(=O)oc2c1
  16% | 0%
CCCNC(=O)NC(=O)CN(C)Cc1ccccc1Br
  -7%[1.06 µM] | 39%[activator]
Cc1nn(CN2CCN(S(=O)(=O)c3ccc(Cl)cc3)CC2)c(=O)c2ccccc12
  -4% | -7%
Nc1ccc(Cl)cc1/C(=N/Nc1ccccc1)c1ccccc1
  28% | 21%
Cc1ccc(CNC(=O)c2cc(=O)c3cc(Cl)ccc3o2)cc1
  1% | 2%
CCOc1ccc(OCC(=O)Nc2ccc3oc(C)nc3c2)cc1
  -5% | -7%
Cc1cc2nc(-c3cccc(NC(=O)COc4ccc(C(C)C)cc4)c3)oc2cc1C
  -7% | 80%[activator]
N#Cc1cnc2ncnn2c1N
  0% | 6%
CCc1cc(C(=O)NC(C)c2ccccc2)no1 (centres undefined)
  -12% | -4%
O=C(c1ccccc1)N1CCN(CCc2ccccc2)CC1
  -7% | -7%
O=c1[nH]c(=O)n(Cc2ccccc2)c2c1C(C(F)(F)F)(C(F)(F)F)N=C(c1ccco1)N2
  -4% | -5%
CCN(CC)c1ccc(NC(=O)CSc2nc(-c3cccs3)cc(C(F)(F)F)n2)cc1
  -14% | -21%
COc1ccc2nc(NC(=O)c3cc(=O)c4ccc(C)c(C)c4o3)sc2c1
  -5% | -8%
Cn1c(=O)c2c(ncn2CCC(=O)Nc2ccccc2)n(C)c1=O
  3% | 4%
CCCCCn1nc(C(=O)Nc2nc(C)cs2)c2ccccc2c1=O
  7% | 11%
CC(Nc1sc(S(C)(=O)=O)nc1S(=O)(=O)c1ccc(Cl)cc1)c1ccccc1 (centres undefined)
  281%[activator] | -7%
Cc1cc(C(=O)O)c2c(C(C)C)nn(-c3ccc(F)cc3)c2n1
  1% | 10%
COC(=O)CSc1nnc2n(-c3ccccc3)c(=O)c3c4c(sc3n12)COC(C(C)C)C4 (centres undefined)
  -6% | 10%
O=C(NCc1cccnc1)C(=O)NCC(c1cccnc1)N1CCN(c2ccccc2F)CC1 (centres undefined)
  ? | 1%&-15%
COc1ccc2oc(=O)c(C(=O)N3CCCc4ccccc43)cc2c1
  0% | 7%
CC(C(=O)NC(=O)NC12CC3CC(CC(C3)C1)C2)N1CCN(c2oc(-c3ccco3)nc2C#N)CC1 (centres undefined)
  -7% | 15%
COc1cccc(-c2cn3ncsc3n2)c1
  23% | 18%
Cc1nc(SCc2noc(-c3ccccc3O)n2)n(C2CC2)c1C
  -2% | 75%[activator]
Cc1cc(C)c2oc(=O)cc(CN3CCN(CCc4ccccn4)CC3)c2c1
  -7% | -11%
O=C(NCCSCc1ccccc1)C1CCN(S(=O)(=O)Cc2ccccc2)CC1
  3% | -1%
COc1cccc(CNC(=O)c2cc3ccc4cccnc4c3[nH]2)c1
  70%[activator] | 0%
Cc1ccc(NC(=O)CSc2nc3nccnc3c(=O)n2CCc2c[nH]c3ccccc23)cc1
  -4% | 0%
CCc1ccc2oc(C(=O)N(Cc3cccc(Cl)c3)Cc3ccco3)c(C)c2c1
  7% | -9%
Nc1c(C(=O)O)cccc1[N+](=O)[O-]
  -2% | 29%
NC(=O)NNC(=S)Nc1ccc(Cl)cc1Cl
  17% | 18%
CN(C(=O)c1ccc(-c2nn(C)c(=O)c3ccccc23)cc1)c1ccccc1
  -2% | -10%
COc1ccccc1NC(=O)CSCc1ccc(Br)cc1
  13% | 18%
O=C(Nc1ccc(-c2nc3cc(Cl)ccc3o2)cc1)c1cc2ccccc2o1
  -4% | 23%
O=c1[nH]c2ccc(Br)cc2c(-c2ccccc2)c1CN1CCCCC1
  16% | 15%
CC(=O)c1ccc(S(=O)(=O)Nc2cccc(-c3ccc(N4CCCCC4)nn3)c2)cc1
  98%[activator] | 171%[activator]
CCc1cccc(NC(=O)CN2Cc3ccccc3C2=O)c1
  29% | 4%
COc1ccc(NC(=O)Cn2cc(S(=O)(=O)c3ccccc3)c(=O)c3cc(C)ccc32)cc1Cl
  4% | 3%
CC(=O)CSc1nnc2cc(C)c3cc(C)cc(C)c3n12
  -7% | 10%
OCc1nc2ccccc2n1CC(O)COc1c(Cl)cccc1Cl (centres undefined)
  -10% | -8%
CCOc1ccc(NC(=O)c2oc3ccccc3c2NC(=O)Cc2ccc(OC)c(OC)c2)cc1
  -7% | 287%[activator]
COc1ccccc1NC(=O)CN1CCN(CC(=O)Nc2ccc(F)c(F)c2)CC1
  2% | 7%
Cc1ccc(CN(C)C(=O)c2cc(S(=O)(=O)Nc3ccc(C)cc3)ccc2C)cc1
  94%[activator] | -10%
CCC(CC)C(CNC(=O)c1cc(Br)ccc1F)N1CCOCC1 (centres undefined)
  15% | 13%
COc1cc(-c2nc(CC(=O)NC3CCN(Cc4ccccc4)CC3)cs2)cc(OC)c1OC
  1% | 4%
Cc1nc2ccc(S(=O)(=O)N(CC(=O)Nc3ccc(F)cc3)Cc3ccccc3)cc2s1
  36%[activator] | 1%
CN(C)CCCNC(=O)c1nc(-c2cccc3[nH]ccc23)no1
  5% | 42%[activator]
O=c1cc(-c2ccc(F)cc2)oc2ccc(F)cc12
  10% | 173%[activator]

# Next part.
# The line under a structure holds: StopGo RLuc | StopGo FLuc
CC1(C)CC(=O)C2=C(C1)Nc1c(c(=O)[nH]c(=O)n1Cc1ccccc1)C2c1ccc2c(c1)OCO2 (centres undefined)
  92%[activator] | 13%
Cc1cc(S(=O)(=O)Nc2ccc(-c3ccc(N4CCCCC4)nn3)cc2)c(C)cc1Cl
  368%[activator] | 110%[activator]
CCOc1cccc(C(=O)Nc2nonc2CC)c1
  137%[activator] | 70%[activator]
CCCn1nc(C(=O)Nc2sc3c(c2C#N)CCCC3)c2ccccc2c1=O
  -16% | -9%
COc1cc(C#N)ccc1OCC(=O)c1ccc2c(c1)OCCCO2
  153%[activator] | ?
COc1ccc(N2CCN(C(=O)c3cc4cc5ccc(Cl)cc5nc4o3)CC2)cc1
  -15% | 0%
CCN1CCCC1CNC(=O)c1ccc2nc(C)c(C)nc2c1 (centres undefined)
  -18% | 68%[activator]
CCOc1ccccc1NC(=O)C1=NN(C2CCS(=O)(=O)C2)C(=O)CC1 (centres undefined)
  -6% | 7%
Cc1ccc(NC(=O)Cc2nn(C)c(=O)c3ccccc23)cc1
  ? | ?
Cn1c(NC(=O)c2ccco2)c(-c2ccccc2)c(=O)c2ccccc21
  -4% | 9%
COc1cc(C(C)NC(=O)c2c(C)noc2C)cc(OC)c1OC (centres undefined)
  21% | 15%
Cc1cc(OCc2n[nH]c(=S)n2CC2CCCO2)cc(C)c1Cl (centres undefined)
  7% | 91%[activator]
O=C(Cn1cc(Br)c(=O)[nH]c1=O)N1CCC2(CC1)OCCO2
  -13% | -12%
CCNc1c(NS(=O)(=O)c2ccc(F)c(F)c2)c(=O)oc2ccccc12
  -5% | 4%
COc1ccc(Nc2cc(C(=O)NCCCN(C)Cc3ccccc3)c3ccccc3n2)cc1
  -19% | -29%
Cc1cc(-c2ccccc2)nc(SCC(=O)c2ccc3c(c2)OCCCO3)n1
  4% | 13%
COCCNC(=O)c1cc2cc(S(=O)(=O)N(C)C)ccc2n1C
  23% | 0%
CCOC(=O)c1c(C)c(CCC(=O)NCCN2CCOCC2)c(C)n1C
  -14% | -12%
COc1ccc(-c2cc(=O)oc3cc(OCC(=O)N4CCC(O)CC4)ccc23)cc1
  0% | 9%
Cc1cc(C(=O)Nc2ccccc2Cc2ccccc2)cs1
  31%[activator] | 22%
CCOc1ccccc1CNC(=O)C(CC)n1nc(C)c2c(C)n(-c3ccccc3)nc2c1=O (centres undefined)
  -14% | 39%[activator]
Cc1ccccc1NC(=O)c1c(NC(=O)C(F)(F)F)sc2c1CCCCC2
  ? | ?
Cc1cccc(Cn2cc3c(=O)n(CC(=O)Nc4cccc(C)c4C)nc-3c3cc(F)ccc32)c1
  -14% | -17%
COc1ccccc1NC(=O)CC1Sc2ccc(C(F)(F)F)cc2NC1=O (centres undefined)
  -6% | -20%
Cc1ccc(-c2nn(C)c(=O)c3ccccc23)cc1CNC(=O)c1ccccc1Cl
  27% | -23%
CCN1CCN(C(=O)c2ccc3c(c2)N(Cc2ccc(Cl)cc2)C(=O)c2ccccc2S3(=O)=O)CC1
  0% | -23%
O=C(CCc1cccnc1)NC12CC3CC(CC(C3)C1)C2
  -4% | 10%
COc1cc(C2c3c(oc4ccccc4c3=O)C(=O)N2c2nncs2)cc(OC)c1OC (centres undefined)
  -10% | 19%
C#Cc1cccc(NC(=O)c2ccc(OCC=C)cc2)c1
  1% | 183%[activator]
NCCC(=O)Nc1ccccc1
  3% | 0%

# Entries of single compounds, looked up by structure. Order of values: StopGo RLuc | StopGo FLuc
# COCCNC(=O)c1cc2cc(S(=O)(=O)N(C)C)ccc2n1C in the list: 23% | 0%
# CCOC(=O)c1c(C)c(CCC(=O)NCCN2CCOCC2)c(C)n1C in the list: -14% | -12%
# C#Cc1cccc(NC(=O)c2ccc(OCC=C)cc2)c1 in the list: 1% | 183%[activator]

# Later entries
# The line under a structure holds: StopGo RLuc | StopGo FLuc
O=C(NC(NC(=O)c1ccccc1)c1ccc(Cl)cc1Cl)c1ccccc1
  -6% | -7%
O=C(NCC1(c2ccccc2)CCC1)c1cc(=O)[nH]c2ccccc12
  12% | 22%
CCN(Cc1ccccc1)C(=O)CSc1ncnc2ccccc12
  -4% | 94%[activator]
O=C(NCc1ccccc1)c1ccc2c(c1)N(Cc1ccccc1F)C(=O)c1ccccc1S2=O (centres undefined)
  30%[activator] | 32%[activator]
COc1ccc(-c2nc3sc(CCNC(=O)C(=O)Nc4ccc(C)c(F)c4)c(C)n3n2)cc1
  -4% | 44%[activator]
Cc1ccccc1-c1noc(CSc2nc3ccccc3[nH]2)n1
  -27% | -3%
COc1ccc(C)cc1-n1nnc(-c2nc(-c3cccs3)no2)c1N
  12% | 94%[activator]
CCCN1CCN(CCCNC(=O)c2ccc3c(c2)sc2nc(-c4ccc(OC)cc4)cn23)CC1
  -13% | 34%[activator]
CCOC(=O)c1noc2nc(C)nc(Nc3ccc(CC)cc3)c12
  9% | 15%
O=C(Nc1ccncc1)C12CC3CC(CC(Br)(C3)C1)C2
  0% | 23%
COc1ccc(N(C)C(=O)Cn2cc(S(=O)(=O)N3CCN(c4ccccc4F)CC3)c3ccccc3c2=O)c(OC)c1
  21% | -8%
COc1ccccc1NC(=O)c1c(-n2cnnn2)sc(C)c1C
  26% | -1%
CC(C)c1ccc(S(=O)(=O)NCC(c2cccnc2)S(=O)(=O)c2ccccc2)cc1 (centres undefined)
  141%[activator] | -3%
Cc1cccc(C(=O)Nc2cc3c(cc2SCc2ccco2)n(C)c(=O)n3C)c1
  ? | ?
CC(C)Cc1nn2c(=O)cc(COC(=O)c3cccc(NC(=O)c4ccccc4)c3)nc2s1
  -8% | -19%
O=C(CCc1ncc(-c2c(F)cccc2F)o1)Nc1ccc(F)cc1
  -6% | 7%
O=C(O)CC(Cc1ccccc1)C(=O)O (centres undefined)
  -2% | 8%
COc1ccc(/C=C2\N=C(SC)SC2=O)cc1
  7% | 18%
CC(C)OCCCNC(=O)CN1C(=O)c2cccnc2Sc2ccccc21
  2% | -14%
CC(Oc1ccccc1)C(=O)Nc1ccc(C(=O)OCc2cc(=O)n3nc(C4CC4)sc3n2)cc1 (centres undefined)
  -5% | -14%
CC(NC(=O)c1occc1-c1ccccc1)c1ccco1 (centres undefined)
  10% | 49%[activator]
CCc1ccccc1N1C(=O)N(Cc2cccc(Cl)c2)c2ccccc2S1(=O)=O
  6% | -5%
COc1ccc(CCN2C(=O)c3oc4cc(C)cc(C)c4c(=O)c3C2c2ccc(F)cc2)cc1OC (centres undefined)
  -14% | -11%

# Some of the compounds tested; count on the stated rates, not on these rows.
